Source: PubChem (several laboratories)
Mtb H37Rv: M. tuberculosis H37Rv growth inhibitors, H37Rv strain (AID 1626) | M. tuberculosis H37Rv growth inhibition; higher % means a stronger effect | inhibition, % at 10 µM; hits with a dose series show IC50 in µM | 220,000 tested, 0.95% active;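 active means confirmed in a dose series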;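 further: bacteria incubated seven days before Alamar blue readout; 0% = bacteria only wells and 100% = bacteria with antibiotic wells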
RecA splice inh: Mtb RecA intein splicing inhibitors, primary screen, biochemical, fluorescence, HTS; Protein RecA (Mycobacterium tuberculosis (strain ATCC 25618 / H37Rv)), P9WHJ3; cell-free RecA intein splicing; inhibition, %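 (about 9 µM by stock and volumes)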; 290,000 tested, 0.75% active; AID 2221, 2009; in the data active means inhibition above about 30%;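 further: 0% = vehicle wells and 100% = reference inhibitor control wells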
Target sequence (P9WHJ3 whole entry, looked up, canonical isoform): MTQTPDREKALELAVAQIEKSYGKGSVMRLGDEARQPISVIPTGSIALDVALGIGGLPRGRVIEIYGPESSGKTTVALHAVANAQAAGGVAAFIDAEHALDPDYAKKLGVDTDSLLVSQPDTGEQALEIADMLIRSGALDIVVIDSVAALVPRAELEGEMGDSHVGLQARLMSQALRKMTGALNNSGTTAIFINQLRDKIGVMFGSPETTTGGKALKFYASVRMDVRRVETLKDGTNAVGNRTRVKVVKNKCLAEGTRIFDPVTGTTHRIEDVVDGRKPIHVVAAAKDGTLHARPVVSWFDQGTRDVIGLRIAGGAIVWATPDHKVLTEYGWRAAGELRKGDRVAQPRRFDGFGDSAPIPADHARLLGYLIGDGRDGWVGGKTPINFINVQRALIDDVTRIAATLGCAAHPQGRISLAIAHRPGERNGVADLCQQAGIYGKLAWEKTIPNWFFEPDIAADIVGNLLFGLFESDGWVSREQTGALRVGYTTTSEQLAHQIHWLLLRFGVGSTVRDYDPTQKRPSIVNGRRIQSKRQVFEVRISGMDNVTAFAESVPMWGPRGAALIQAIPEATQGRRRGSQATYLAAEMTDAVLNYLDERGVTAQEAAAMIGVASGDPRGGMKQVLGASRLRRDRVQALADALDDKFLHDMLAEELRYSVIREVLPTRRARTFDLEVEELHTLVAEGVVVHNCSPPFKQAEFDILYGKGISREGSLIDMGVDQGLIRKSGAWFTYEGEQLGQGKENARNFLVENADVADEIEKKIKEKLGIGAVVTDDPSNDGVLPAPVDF
Arbovirus anti: antivirals against arbovirus infection, primary screen, cell-based, full library, 10K replicate subset. arbovirus infection cell-based antiviral screen. inhibition, % at 10 µM. 200,000 tested, 0.37% active;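 active means inhibition from about 30%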;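 further: bluetongue infection of BSR cells; cell survival read as ATP light after 72 h; 0% = infected wells without compound and 100% = uninfected wells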
YopH inh: YopH tyrosine phosphatase inhibitors, primary screen, biochemical, fluorescence Ex485/Em525; YopH tyrosine phosphatase [Yersinia enterocolitica]; inhibition, %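 (about 10 µM by stock and volumes)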; 140,000 tested, 0.16% active;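 active means inhibition of 50% or more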;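 further: controls were vehicle for no effect and minimum signal wells for full effect; inactives centre near -20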
Mtb betalactam: beta-lactam sensitization of Mtb H37Rv, H37Rv. M. tuberculosis H37Rv growth with meropenem, percent inhibition; hits of this screen are not shown here. inhibition, % at 25 µM. 330,000 tested, 0.27% active. AID 434955, 2010;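 active means about 74% or more and at least 40 points above the plate without the antibiotic, then above 30% in a dose series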;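 further: growth measured after seven days incubation then overnight dye step; 0% = bacteria only wells and 100% = bacteria with antibiotic; twin plates without the antibiotic show which effects depend on it; some results filed as inactive read as strong as hits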
Arbovirus anti repeat: second read-out of Arbovirus anti, no call of its own (marks repeat the call); inhibition, %; measured here: 10K subset replicate screen; many hits read low in the repeat;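 first of two repeat runs on a subset; 0% = infected and 100% = uninfected wells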
Active calls of the source: *; . = not tested or not shown. Only part of the results is shown; rates above refer to the full screens.

SMILES	Mtb H37Rv	RecA splice inh	Arbovirus anti	YopH inh	Mtb betalactam	others
COc1ccc(OC)c(C2CC(=O)N3CN(c4ccccc4)CSC3=C2C#N)c1 (stereo not given)	1%	2.1	10	-34	3	Arbovirus anti repeat=0
CCOC(=O)C1=C(C)Nc2sc(C(=O)c3ccc(C)cc3)c(N)c2C1c1ccc(C(=O)OC)cc1 (stereo not given)	56%	-12	5	9	86
COc1ccccc1CN1CC(C(=O)N2CCCCO2)CCC1=O (stereo not given)	.	0.6	.	.	-1
CCN(CC)CCCNC(=O)c1cn(CCOC)c(=O)c2c1c1ccccc1n2C	2%	-1.4	10	-25	8
COc1ccc(NC(=O)c2ccc(CN3CCN(c4ccccc4)CC3)cc2)cc1OC	-2%	.	-10	5	4
O=C(CCNC(=O)C1CCN(S(=O)(=O)c2ccc(F)cc2)CC1)NCc1ccc(Cl)cc1	.	1.8	.	.	-4
Clc1ccc(CCNCc2ccncc2)c(Cl)c1	.	-0.6	.	.	-2
CN(C(=O)c1ccccc1)C1c2c(ccc3ccccc23)OCC1CO (stereo not given)	.	10	.	.	5
O=C(CCn1c(=O)c2cccn2c2ccc(F)cc21)NCc1cccc(F)c1	.	-0.4	.	.	2
O=C(NC(=S)N1CCc2ccccc21)C1CCC1	-5%	1.2	5	.	-7

Next part, overlapping the part above by 4 compounds.
SMILES	Mtb H37Rv	RecA splice inh	Arbovirus anti	YopH inh	Mtb betalactam	others
Clc1ccc(CCNCc2ccncc2)c(Cl)c1	.	-0.6	.	.	-2
CN(C(=O)c1ccccc1)C1c2c(ccc3ccccc23)OCC1CO (stereo not given)	.	10	.	.	5
O=C(CCn1c(=O)c2cccn2c2ccc(F)cc21)NCc1cccc(F)c1	.	-0.4	.	.	2
O=C(NC(=S)N1CCc2ccccc21)C1CCC1	-5%	1.2	5	.	-7
O=C(Nc1nccs1)c1cccc(NC(=O)C2CC2)c1	7%	0.7	-2	1	-3
Cc1ccc2cc(CCNC(=O)CCCc3ccccc3)c(=O)[nH]c2c1	.	-2.8	.	.	2
Cc1cc(NS(=O)(=O)c2ccc(NC(=O)C(C(C)C)N3C(=O)c4ccccc4C3=O)cc2)nc(C)n1 (stereo not given)	-14%	-0.3	14	-26	-5
COc1ccc(NC(=O)CCS(=O)(=O)c2ccc3c(c2)NC(=O)C(C)S3)cc1OC (stereo not given)	.	0.2	.	.	3
CC(=O)NC(CC(=O)NNC(=O)c1cc2ccccc2cc1O)c1ccccc1 (stereo not given)	.	-4.5	.	.	3
Cc1cccc(C)c1OCCOC(=O)c1n[nH]c2ccccc12	1%	6.2	-3	.	10
CCN(CCCNC(=O)CN(C)S(=O)(=O)c1cccc2nsnc12)c1cccc(C)c1	-10%	.	13	-42	-1
CC1(C)CC(NCc2ccncc2)CC(C)(C)N1	1%	-3.1	-2	.	1
CC1CCC(=O)N(CCC#N)CC1 (stereo not given)	.	-1.1	.	.	-9
CCN(C(=O)c1cn(CC)c(=O)c2cc(OC)c(OC)cc12)c1ccccc1C	2%	0.3	5	-30	0
O=[N+]([O-])c1cc(S(=O)(=O)N2CCCC2)ccc1NN=C1CCCC1	1%	0.4	0	-11	3
Nc1nonc1-n1nnc(C(=O)N/N=C/c2cccc(Cl)c2)c1CSc1ccc(Cl)cc1	8%	-5.2	-8	.	-1
O=C(COC(=O)Cc1ccc(F)cc1)NC(=O)c1ccccc1	.	-2.5	.	.	-2
O=C(c1ccco1)N1CCN(c2nc(C3CC3)nc3c2nnn3Cc2ccccc2Cl)CC1	31%	-0.3	-26	-1	64
CCNc1ccc(C(=O)OCC)cc1NC(=O)c1cc(S(=O)(=O)N2CCOCC2)ccc1C	1%	0.5	0	-5	1	Arbovirus anti repeat=-4
COc1ccc(C(=O)N=c2sc3ccccc3n2C)cc1OC	1%	-0.3	12	.	-4
Cc1cccc(CSc2nc3ccncc3n2CC(=O)Nc2ccc(C)c(C)c2)c1	5%	.	1	-24	.
COc1ccc(NC(C)=O)cc1NC(C)C(=O)Nc1cc(C(F)(F)F)ccc1N1CCOCC1 (stereo not given)	1%	3.0	-1	-2	-4
CCC(C)[C@H]1CN=C(N)N1CCCc1cc(OC)c(OC)c(OC)c1 (stereo not given in full)	-14%	0.0	.	.	-4
O=C(COc1ccc2ccccc2c1)Nc1ccc(Br)cc1C(=O)O	.	10	.	.	3
C/C(N)=C(/C#N)C(=O)CSc1nnc(-c2ccc(OC(F)F)cc2)o1	0%	2.6	1	-28	-3
COc1ccc(NC2CC(=O)N(c3cc([N+](=O)[O-])ccc3C)C2=O)cc1 (stereo not given)	70%	-3.7	-7	.	49
COc1ccc(NC(=O)CN(C)S(=O)(=O)c2cnc[nH]2)cc1OC	.	-0.4	.	.	3
Cc1noc(C)c1S(=O)(=O)N1CCC(C(=O)c2ccccc2)CC1	3%	5.7	.	.	-3
COc1nc(N2CCOCC2)nc(C)c1[N+](=O)[O-]	2%	-2.4	8	-12	2
CCc1noc(C)c1C(=O)N1CCSC1=Nc1cccc(Cl)c1C	.	12	.	.	2
OCCN=C(c1ccccc1)C12CN3CN(CN(C3)C1)C2	-2%	1.7	10	-14	6
COCCNC(=O)C(=O)N/N=C(\C)CC(=O)Nc1cccc(C(F)(F)F)c1	5%	-0.8	.	.	0
Cc1ccc(C)c(NCC(=O)c2ccc(Cl)cc2)c1	.	-0.2	.	.	-4
COc1ccc(NC(=O)c2cccc(C(=O)Nc3ccc(OC)cc3)n2)cc1	3%	.	4	.	-1
CCCCOc1ccc(C(=O)NCC(=O)NCCOc2ccccc2)cc1	.	0.7	.	.	-3
COc1ccccc1-n1c(C)nc2cc(C(=O)O)ccc21	4%	1.8	3	-21	7
CCOc1ccccc1NC(=O)C1C2C=CC(C2)C1C(=O)O (stereo not given)	-5%	-0.8	3	-31	.
COc1ccc(CCNS(=O)(=O)c2ccc3c(c2)OCCO3)cc1	.	-2.2	21	-39	-3
CC1CCN(c2nnc(-c3cccs3)c3ccccc23)CC1	22%	13	-15	-20	12
CCOc1cccc(C2/C(=C(/O)c3ccc4c(c3)CC(C)O4)C(=O)C(=O)N2Cc2cccnc2)c1 (stereo not given)	.	6.5	.	.	3
COc1ccc(NC(=O)CCc2nc3ccccc3s2)c(OC)c1	-4%	0.9	-5	.	-3
CCOC(=O)c1ccc(NC(=O)Nc2ccc(Cl)cn2)cc1	-5%	-0.7	5	.	5
N#C/C(=C\c1cn(CCOc2ccccc2)c2ccccc12)C(=O)NCC1CCCO1 (stereo not given)	5%	8.4	1	-16	94
O=C(NNS(=O)(=O)c1ccccc1)C1CCN(S(=O)(=O)c2ccccc2)CC1	0%	-0.4	2	-28	3
CC(/C=N/Nc1ncc(C)c(=O)[nH]1)=C\c1ccccc1	6%	-3.5	3	.	-4
CCOC(=O)C(C)n1cnc2c(nnn2Cc2ccc(Cl)cc2)c1=O (stereo not given)	1%	-4.9	7	-43	-8
CN(/C=C/C(=C/C=[N+](C)c1ccccc1)OCCCS(=O)(=O)[O-])c1ccccc1	4%	-3.3	14	.	3
CCOC(=O)c1cccc(NC(=O)C2CCN(c3ncnc4c3nc3n4CCCCC3)CC2)c1	.	-0.8	.	.	3
CC(=O)N(C(C)=O)c1c(N2CCOCC2)c2ccccc2oc1=O	-3%	-1.4	2	9	-12
CCc1ccc(NC(=O)CCCNC(=O)Cn2cnc3sc(C)c(C)c3c2=O)cc1	.	0.4	.	.	9
N=c1n(CCc2ccccc2)c2ccccc2n1Cc1ccccc1F	15%	-0.7	-36	-10	9
CCC(NC(=O)c1ccccc1NC(=O)c1ccccc1)C(=O)OC (stereo not given)	2%	-0.5	0	.	-4
CC(=O)Nc1c(C)nn(-c2ccc([N+](=O)[O-])cc2)c1C	-2%	-3.1	3	.	-4
COc1ccc(C2CC(c3ccc([N+](=O)[O-])cc3)=NN2C(=O)c2ccccc2)cc1OC (stereo not given)	0%	-2.0	0	.	1

Additional results
SMILES	Mtb H37Rv	RecA splice inh	Arbovirus anti	YopH inh	Mtb betalactam	others
Cc1cc(C)n(C(=O)C23CC4CC(CC(C4)C2)C3)n1	-7%	0.6	8	-17	10
CCOc1ccc(C2CC(c3cccc(C)c3)n3nc(N)nc3N2)cc1 (stereo not given)	-2%	0.5	6	-41	-2	Arbovirus anti repeat=1
CSC(SC)=C(C(C)=O)C(=O)c1ccc(C)cc1	6%	27	1	-42	9
COc1ccc(C(CNC(=O)c2cc3ccccc3cc2O)N2CCOCC2)cc1 (stereo not given)	.	-1.8	.	.	-12
c1ccc(-n2cnc3ccccc32)cc1	1%	18	11	.	9
CCOc1cc(/C=N/n2cnnc2)ccc1O	-11%	1.5	5	7	-6
COc1ccccc1C(=O)NCC(=O)n1nc(C)cc1C	-9%	0.8	6	-29	-2
CN1Cc2cccnc2N(C)Cc2cc(Cl)ccc21	3%	2.9	-21	-24	15
CCCN(CC(=O)Nc1ccccc1OC)C(=O)c1cc2ccccc2o1	8%	0.4	-13	.	3
COc1cccc(C(=O)c2c[nH]c(C(=O)NCCCN3CCOCC3)c2)c1	8%	0.1	2	.	0
CCc1nc2c(c(=O)[nH]1)C(CC)(CC)Cc1ccccc1-2	.	-2.1	.	.	2
CCOC(=O)C1(c2ccccc2)CCN(Cc2cccc(C(=O)O)c2)CC1	0%	1.1	11	-21	-8
O=C(CSc1ncnc2c1oc1ccccc12)N1CCN(c2ccccc2)CC1	5%	.	.	-26	-8
O=C(NC(N1CCOCC1)C(Cl)(Cl)Cl)c1ccc(F)cc1 (stereo not given)	0%	1.5	17	.	-3
O=C(NCCSCc1ccco1)Nc1ccccc1	22%	-0.1	-5	-39	2
Cc1cc(C)c(C(=O)C(C)OC(=O)c2ccccn2)cc1C (stereo not given)	.	2.4	.	.	-10
COc1ccc(N(CC(=O)N2CCc3ccccc32)S(=O)(=O)c2c(C)nn(C)c2C)cc1	-4%	-5.7	3	-47	7
Cc1ccc(S(=O)(=O)Nc2nc(C)cc(NCCN)n2)cc1	-2%	1.3	2	-23	9	Arbovirus anti repeat=1
NS(=O)(=O)c1ccc(CNC(=O)c2ccc(S(=O)(=O)C(F)F)cc2)cc1	1%	3.1	.	.	-8
Cc1ccc(NC(=O)CNC2CCS(=O)(=O)C2)cc1C (stereo not given)	-1%	-0.8	4	.	.
O=C(NC(Nc1ccc(F)cc1)(C(F)(F)F)C(F)(F)F)c1cccnc1	-4%	1.5	-8	1	-6
Cc1cc(C)c(C#N)c(SCc2cn3c(C)cccc3n2)n1	1%	2.1	4	-16	6
Cc1cc(C)nc(NS(=O)(=O)c2ccc(N=Cc3c(O)n(C)c(=O)n(C)c3=O)cc2)n1	-2%	-2.4	4	.	0
Cc1nc(NC(=O)c2ccccc2)sc1-c1csc(N)n1	-3%	-1.5	-36	1	14
COC(=O)C(C)NS(=O)(=O)c1ccc(NC(C)=O)cc1 (stereo not given)	18%	-6.6	0	-27	-4
O=C(NCc1ccccn1)c1ccc(OC2CCN(Cc3ccc(Cl)s3)CC2)cc1	.	-2.7	.	.	3

Structural class, the entries above containing a Cl atom.
SMILES	Mtb H37Rv	RecA splice inh	Arbovirus anti	YopH inh	Mtb betalactam	others
O=C(CCNC(=O)C1CCN(S(=O)(=O)c2ccc(F)cc2)CC1)NCc1ccc(Cl)cc1	.	1.8	.	.	-4
Clc1ccc(CCNCc2ccncc2)c(Cl)c1	.	-0.6	.	.	-2
Nc1nonc1-n1nnc(C(=O)N/N=C/c2cccc(Cl)c2)c1CSc1ccc(Cl)cc1	8%	-5.2	-8	.	-1
O=C(c1ccco1)N1CCN(c2nc(C3CC3)nc3c2nnn3Cc2ccccc2Cl)CC1	31%	-0.3	-26	-1	64
CCc1noc(C)c1C(=O)N1CCSC1=Nc1cccc(Cl)c1C	.	12	.	.	2
Cc1ccc(C)c(NCC(=O)c2ccc(Cl)cc2)c1	.	-0.2	.	.	-4
CCOC(=O)c1ccc(NC(=O)Nc2ccc(Cl)cn2)cc1	-5%	-0.7	5	.	5
CCOC(=O)C(C)n1cnc2c(nnn2Cc2ccc(Cl)cc2)c1=O (stereo not given)	1%	-4.9	7	-43	-8
CN1Cc2cccnc2N(C)Cc2cc(Cl)ccc21	3%	2.9	-21	-24	15
O=C(NC(N1CCOCC1)C(Cl)(Cl)Cl)c1ccc(F)cc1 (stereo not given)	0%	1.5	17	.	-3
O=C(NCc1ccccn1)c1ccc(OC2CCN(Cc3ccc(Cl)s3)CC2)cc1	.	-2.7	.	.	3
